High-throughput results: PubChem BioAssay, National Center for Advancing Translational Sciences (NCATS)
Gal4-VP16 FLuc – counter-screen for ROR gamma inhibitors: Gal4-VP16 reporter | 310,000 tested, 3.5% active | Potency, µM (titrated, usually from 53.6 µM), inactives show top-dose activity, negative = inhibition, most hits filed as inhibitors | AID 2546 | Drosophila S2 Gal4-VP16 UAS-luciferase, luminescence, 20 h;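 note: Gal4-VP16 expression switched on by copper sulfate through the metallothionein promoter; potency is the fitted concentration of half-maximal effect; % is set by controls: 0 for no effect and ±100 for the full control effect; nearly all actives have a fitted effect of over 50% in size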
Giardia killer – kills Giardia lamblia; Giardia lamblia trophozoite viability; AID 540267; 340,000 tested, 0.15% active; activity change, % at 7.66 µM, hits read low; in the data active = activity change below about -80%; inconclusive = between about -30% and that limit;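 note: parasites exposed to compound for two days anaerobically before the ATP read; % is set by controls: 0 for no effect and ±100 for the full control effect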
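Compounds were tested on trophozoites seeded at 100 cells/well and held 48 hrs at 37 deg C anaerobically. An ATP-based luminescent kit measured the remaining live cells.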
ELG1 genotoxic – induces genotoxicity in HEK293T cells with luciferase-tagged ELG1. 330,000 tested, 1.3% active. Potency, µM (top dose mostly 46 µM), inactives show at the top dose activity change, positive = activation, hits mostly activators. AID 504466. HEK293T ELG1-luciferase reporter, luminescence, 16 h; note: potency is the fitted concentration of half-maximal effect; % of control where 0% means no effect; nearly all actives have a fitted effect of over 60% in size
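Cells (2,000/well) expressing the ELG1-luciferase fusion are dosed by pin tool and kept 16 hr at 37 °C, 5% CO2. Signal comes from ONE-Glo luciferase reagent after 30 min at room temperature.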
Menin-MLL TR inh – menin-MLL binding inhibition, Texas Red mutant peptide. O00255. Menin + Texas Red MLL mutant peptide, fluorescence polarization. Potency, µM (top dose mostly 61.6 µM), without a hit: at the top dose FP activity change, negative = inhibition, usual class: inhibitors. 270,000 tested, 0.23% active; active = well fitted inhibition curve with a large enough effect in the polarisation, with a control signal flat, not every such curve was filed as active; inconclusive = small, poorly fitted or top-dose-only effect, or effect the other way, or a change in a side signal; inactive = no such curve, though single readings can be large or run the other way; the % refers to the polarisation; note: potency is the fitted concentration of half-maximal effect; % of control where 0% means no effect; many of its hits are not listed in these tables
Target sequence (O00255 whole entry, looked up): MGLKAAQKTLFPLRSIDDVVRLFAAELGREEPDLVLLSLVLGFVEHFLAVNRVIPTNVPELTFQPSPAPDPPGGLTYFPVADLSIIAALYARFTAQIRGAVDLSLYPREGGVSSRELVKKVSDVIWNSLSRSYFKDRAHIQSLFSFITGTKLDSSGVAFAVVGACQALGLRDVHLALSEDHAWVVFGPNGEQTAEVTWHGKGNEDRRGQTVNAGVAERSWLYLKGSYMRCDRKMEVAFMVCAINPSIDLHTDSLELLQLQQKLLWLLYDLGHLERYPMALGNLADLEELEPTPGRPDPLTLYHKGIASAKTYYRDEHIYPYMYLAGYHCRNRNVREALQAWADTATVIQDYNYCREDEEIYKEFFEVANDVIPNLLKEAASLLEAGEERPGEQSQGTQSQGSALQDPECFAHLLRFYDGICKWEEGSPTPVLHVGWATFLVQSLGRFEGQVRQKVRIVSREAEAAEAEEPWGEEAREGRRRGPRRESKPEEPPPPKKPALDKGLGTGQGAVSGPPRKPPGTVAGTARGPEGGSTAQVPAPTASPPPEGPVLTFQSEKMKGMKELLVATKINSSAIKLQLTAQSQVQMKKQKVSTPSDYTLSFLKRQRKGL
PKM2 act – activators of human pyruvate kinase M2. purified PKM2, Kinase-Glo ATP luminescence, activation; response scale: 0% is enzyme alone, no compound. P14618. AID 1631. 260,000 tested, 0.34% active. Potency, µM (highest dose often 57.5 µM), for the others: at the highest dose activation, most hits filed as activators; note: potency is the fitted concentration of half-maximal effect; % is set by controls: 0 for no effect and ±100 for the full control effect; nearly all actives have a fitted effect of over 55% in size
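Purified hPK-M2 (>95% pure) converted ADP (0.1 mM final) to ATP with 0.5 mM PEP in 50 mM imidazole pH7.2, KCl, MgCl2, Tween 20, BSA; 1 h at room temperature. ATP detected by Kinase-Glo luminescence.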
BRCA1 expr up – activators of BRCA1 expression; AID 624202; Potency, µM (titrated, usually from 46.1 µM), inactives show top-dose activation, actives largely listed as activators; 380,000 tested, 1.1% active; MCF7-BRCA1-FFLuc reporter, luminescence, 48 h; response scale: scaled: vehicle 0%, 10 µM genistein 100%; note: potency is the fitted concentration of half-maximal effect; nearly all actives have a fitted effect of over 80% in size; some results filed as inactive show a strong effect at the top dose
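Using MCF7 cells harboring a BRCA1 firefly luciferase reporter, plated 2 h before compound pinning, the screen measured luminescence after 48 h incubation. Responses were normalized to DMSO and 10 microM genistein, then fitted for concentration-effect.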
An asterisk follows results filed as active; u = inconclusive; x = no result given; & = joins results of further samples; [ ] = remark or other dose. Unless noted, calls come from the whole dose curve; as a rule, active = well fitted curve in the direction sought with a large enough effect; inconclusive = small, poorly fitted or top-dose-only effect, or another doubt; inactive = no such curve, though single readings can be large; an effect the other way counts as inactive or inconclusive. These rows are one share of the data; rates above refer to the full screens.

SMILES | Gal4-VP16 FLuc | Giardia killer | ELG1 genotoxic | Menin-MLL TR inh | PKM2 act | BRCA1 expr up
Fc1ccc(C(c2ccc(F)cc2)N2CCN(C/C=C\c3ccccc3)CC2)cc1 | -14.6% | x | x | u | x | x
Nc1ccn([C@@H]2O[C@H](CO)[C@@H](O)[C@H]2O)c(=O)n1 | -15.9% | -5.5 | x | 0.0%[24.8 µM] | x | 3.6%
Fc1ccc(C(c2ccc(F)cc2)N2CCN(C/C=C/c3ccccc3)CC2)cc1 | u | -7.4 | 0.9% | u | -6.5% | -24.1%
CN(C)CCC(c1ccc(Br)cc1)c1ccccn1 (centres undefined) | 4.3%&-8.3% | -14.4&-0.9&11.0 | -0.9%&-0.8% | 2.7%&-20.4%&11.4% | 11.2% | -16.3%&-12.0%&20.4%
CN(C)CC[C@H](c1ccc(Br)cc1)c1ccccn1 | 4.9%[17 µM] | x | x | 15.3%[24.8 µM] | x | x
O=C(C1CCCCC1)N1CC(=O)N2CCc3ccccc3[C@@H]2C1 | -1.0%[17 µM] | x | x | -7.8%[24.8 µM] | x | x
CC(C)NCC(O)c1cc(O)cc(O)c1 (centres undefined) | -6.0%&4.1% | u | 0.7% | -2.4%&7.3% | 1.5% | -0.9%
CN(C)CC[C@@H](c1ccc(Br)cc1)c1ccccn1 | -8.8% | -25.9 | x | -6.2%&9.0% | x | -16.6%

A portion of the results above, as a working copy:
SMILES | Gal4-VP16 FLuc | Giardia killer | ELG1 genotoxic | Menin-MLL TR inh | PKM2 act | BRCA1 expr up
CN(C)CC[C@H](c1ccc(Br)cc1)c1ccccn1 | 4.9%[17 µM] | x | x | 15.3%[24.8 µM] | x | x
O=C(C1CCCCC1)N1CC(=O)N2CCc3ccccc3[C@@H]2C1 | -1.0%[17 µM] | x | x | -7.8%[24.8 µM] | x | x

Part of the list above, with two lines to a compound.
Order of results: Gal4-VP16 FLuc | Giardia killer | ELG1 genotoxic | Menin-MLL TR inh | PKM2 act | BRCA1 expr up
Fc1ccc(C(c2ccc(F)cc2)N2CCN(C/C=C\c3ccccc3)CC2)cc1
 : -14.6% | x | x | u | x | x
Nc1ccn([C@@H]2O[C@H](CO)[C@@H](O)[C@H]2O)c(=O)n1
 : -15.9% | -5.5 | x | 0.0%[24.8 µM] | x | 3.6%
Fc1ccc(C(c2ccc(F)cc2)N2CCN(C/C=C/c3ccccc3)CC2)cc1
 : u | -7.4 | 0.9% | u | -6.5% | -24.1%
CN(C)CCC(c1ccc(Br)cc1)c1ccccn1 (centres undefined)
 : 4.3%&-8.3% | -14.4&-0.9&11.0 | -0.9%&-0.8% | 2.7%&-20.4%&11.4% | 11.2% | -16.3%&-12.0%&20.4%
CN(C)CC[C@H](c1ccc(Br)cc1)c1ccccn1
 : 4.9%[17 µM] | x | x | 15.3%[24.8 µM] | x | x
O=C(C1CCCCC1)N1CC(=O)N2CCc3ccccc3[C@@H]2C1
 : -1.0%[17 µM] | x | x | -7.8%[24.8 µM] | x | x
CC(C)NCC(O)c1cc(O)cc(O)c1 (centres undefined)
 : -6.0%&4.1% | u | 0.7% | -2.4%&7.3% | 1.5% | -0.9%
CN(C)CC[C@@H](c1ccc(Br)cc1)c1ccccn1
 : -8.8% | -25.9 | x | -6.2%&9.0% | x | -16.6%
